miR-21 reporter – miR-21 reporter, rising signal. HeLa miR-21 FLuc reporter, luciferase, 48 h. Potency, µM (titrated, usually from 38.3 µM), for inactives: at the highest dose reporter change, positive = more light. 340,000 tested, under 10 active. AID 2288; active = well fitted rising curve with a large enough effect; inconclusive = small, poorly fitted or top-dose-only effect; inactive = no such curve, though single readings can be large or run the other way;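 further: % of control where 0% means no effect; miR-21 action dims this reporter so a rising signal means less miR-21 action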
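Using DMEM plus 10% FBS, HeLa miR-21-FLuc cells are incubated with test compounds (final up to about 40uM) for 48 hours; firefly luciferase signal is then imaged following reagent-mediated lysis.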
GLA inh pH 4.5 – alpha-galactosidase A (human) inhibition, pH 4.5; P06280; purified enzyme, 4-MU-alpha-Gal fluorescence, pH 4.5; activity change, negative = inhibition, % at 105 µM; 230,000 tested, under 10 active; AID 1467; inconclusive = small, poorly fitted or top-dose-only inhibition, or a rising curve; inactive = flat fitted curve, though single readings scatter; no compound was filed as active;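 further: 0% = full activity with enzyme and -100% = basal without enzyme; dose as in the result columns while the protocol names 77 µM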
Target sequence (P06280 whole entry, looked up): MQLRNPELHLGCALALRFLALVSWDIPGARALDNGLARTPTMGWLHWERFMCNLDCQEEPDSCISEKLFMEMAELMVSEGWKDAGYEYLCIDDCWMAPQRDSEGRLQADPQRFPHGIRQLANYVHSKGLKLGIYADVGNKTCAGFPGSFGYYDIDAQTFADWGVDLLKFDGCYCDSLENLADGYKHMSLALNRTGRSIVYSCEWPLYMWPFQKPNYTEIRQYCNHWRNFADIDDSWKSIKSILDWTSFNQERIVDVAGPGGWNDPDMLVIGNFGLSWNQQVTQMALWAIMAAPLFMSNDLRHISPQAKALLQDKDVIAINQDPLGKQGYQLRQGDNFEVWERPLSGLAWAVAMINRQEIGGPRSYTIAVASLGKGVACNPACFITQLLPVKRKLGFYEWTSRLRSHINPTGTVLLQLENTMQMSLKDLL
Rango-impB inh – inhibitors of Rango-importin beta complex formation. Q14974. Rango CFP/YFP FRET sensor + importin beta, 45 min. Potency, µM (top dose mostly 92.2 µM), without a hit: top-dose inhibition of complex formation. actives 0.031% (n = 340,000); active = rising FRET ratio curve, often small or poorly fitted; inconclusive = mostly compound fluorescence or quenching in the first reads; inactive = flat curves in all reads;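 further: potency means the concentration at half of the fitted maximal effect; 0% = DMSO wells and 100% = buffer wells lacking importin beta; nearly all actives have a fitted effect of over 15% in size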
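FRET biosensor Rango (snurportin 1 IBB between N-terminal EYFP and C-terminal Cerulean), 50 nM in PBS/1 mM DTT/0.02% Tween-20/0.1% BSA, preincubated 5 min RT with compound; 0.125 microM importin beta added, 45 min RT, CFP/YFP FRET ratio read.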
Rango dissoc inh – prevents RanGTP from dissociating the Rango-importin beta complex. Biochemical FRET Rango-importin beta, RanGTP-induced dissociation. Potency, µM (top dose mostly 46.1 µM), inactives show top-dose activity change, negative = inhibition. AID 540253. actives 0.071% (n = 340,000). O95149+P62826; active means falling FRET ratio curve, often poorly fitted, with flat reads before Ran was added; inconclusive means other falling curves, or compound fluorescence or quenching; inactive means flat or rising ratio curve;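 further: potency means the concentration at half of the fitted maximal effect; % of control where 0% means no effect; nearly all actives have a fitted effect of over 45% in size; -100% = wells without RanGTP and RCC1; the record marks most hits as doubtful in a second field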
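Rango FRET biosensor (snurportin-1 IBB flanked by N-terminal EYFP and C-terminal CFP10) at 0.1 uM, with 0.25 uM importin beta in PBS, 1mM DTT, 0.02% Tween-20, 0.1% BSA. 0.6 uM Ran, 2mM GTP and 0.2 uM RCC1 were then added for 45 min at room temperature. Inhibition read as loss of FRET rise.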
Starred values were filed as active, the others as inactive; ? = inconclusive; · = no result given; & = joins results of further samples.

SMILES | miR-21 reporter | GLA inh pH 4.5 | Rango-impB inh | Rango dissoc inh
COc1ccc(OC)c(NC(=O)c2cc3c(cc2Cl)N2CCCCCC2=NS3(=O)=O)c1 | · | · | -0.3% | 0%
Cn1c(Cc2c[nH]c3ccccc23)n[nH]c1=S | -1% | 4 | -0.9% | 0%
COc1ccc(C(C)(C)C)cc1NC(=O)COC(=O)c1cc(SC)ccc1Cl | -10% | -4 | 0.4% | -5%
Cc1cccc(C(=O)OC(C)C(=O)NC(=O)NC2CCCCC2)c1O (stereo not given) | · | · | 1.2% | -15%
CCC(C)NC(=O)COC(=O)c1oc2ccccc2c1CSc1ccc(Cl)cc1 (stereo not given) | -2% | 2 | 0.4% | 9%
O=c1cc(Cl)c2ccccc2n1-c1ccccc1 | -4% | · | ? | 13%
CC1CCN(C(=O)CSc2nc(=O)n3cc(Cl)ccc3n2)CC1 | · | · | 0.0% | -4%
CCCCCC1CC1C(=O)N/N=C/c1ccc(N(C)C)cc1 (stereo not given) | -7% | -1 | ? | 8.2µM*
N#Cc1ccc(S(=O)(=O)N2CCN(CC(=O)Nc3ccccc3C(=O)NC3CC3)CC2)cc1 | · | · | 2.0% | 15%
Cn1/c(=N/N=C/c2ccc(N3CCOCC3)cc2)sc2ccccc21 | -33% | -9 | 2.8% | -9%

Only GLA inh pH 4.5, miR-21 reporter and Rango-impB inh, for two of the compounds above:
| SMILES | GLA inh pH 4.5 | miR-21 reporter | Rango-impB inh |
| --- | --- | --- | --- |
| CC1CCN(C(=O)CSc2nc(=O)n3cc(Cl)ccc3n2)CC1 | · | · | 0.0% |
| CCCCCC1CC1C(=O)N/N=C/c1ccc(N(C)C)cc1 (stereo not given) | -1 | -7% | ? |

Entries of single compounds as entered above. Screens in order: miR-21 reporter | GLA inh pH 4.5 | Rango-impB inh | Rango dissoc inh
`Cn1c(Cc2c[nH]c3ccccc23)n[nH]c1=S` as listed: -1% | 4 | -0.9% | 0%
`COc1ccc(OC)c(NC(=O)c2cc3c(cc2Cl)N2CCCCCC2=NS3(=O)=O)c1` as listed: · | · | -0.3% | 0%
`Cn1/c(=N/N=C/c2ccc(N3CCOCC3)cc2)sc2ccccc21` as listed: -33% | -9 | 2.8% | -9%
`O=c1cc(Cl)c2ccccc2n1-c1ccccc1` as listed: -4% | · | ? | 13%
`CCCCCC1CC1C(=O)N/N=C/c1ccc(N(C)C)cc1` (stereo not given) as listed: -7% | -1 | ? | 8.2µM*

Going on with the list:
SMILES | miR-21 reporter | GLA inh pH 4.5 | Rango-impB inh | Rango dissoc inh
O=C(NC(=S)NC1CCS(=O)(=O)C1)c1ccccc1Br (stereo not given) | 1% | · | ? | -15%
CC(=O)Nc1ccc(CN2CCCC(C(=O)c3ccc(C(F)(F)F)cc3)C2)cc1 (stereo not given) | -1% | 0 | 0.9% | 23%
C[C@H](CO)N1C[C@H](C)[C@@H](CN(C)Cc2ccccc2)Oc2c(NC(=O)C3CCCCC3)cccc2C1=O | · | · | -0.7% | -8%
O=C(C1=C[C@H](c2csc3ccccc23)C[C@H](OCc2ccc(CO)cc2)O1)N1CCN(Cc2ccccc2)CC1 | 13% | -2 | -1.1% | -11%
CC[C@]1(C(=O)OC)[C@H]2C(=O)N(C)C(=O)[C@H]2[C@H]2CN(C)C(=NC3CCCCC3)N21 | · | · | -0.6% | 12%
CCOc1ccc(N(CC(=O)N2CCN(c3ccc(F)cc3)CC2)S(=O)(=O)c2c(C)noc2C)cc1 | 14% | · | -2.7% | 21%
COc1ccc(/C=C/C(=O)Nc2cccc(S(=O)(=O)NC3=NCCCCC3)c2)cc1 | -19% | -2 | 0.2% | 10%
Cc1c(N/C(=N/S(=O)(=O)c2cc([N+](=O)[O-])ccc2Cl)c2ccccc2)c(=O)n(-c2ccccc2)n1C | 0% | -1 | -2.4% | 1%
COc1ccc(/C=N/NC(=O)c2cccnc2)cc1CN1CCOCC1 | 5% | -6 | -1.1% | 33%
Cn1c2cc(Br)sc2c2cnn(Cc3c(F)cccc3Cl)c(=O)c21 | · | · | -0.3% | -19%
Clc1ccc2nnnc(-c3ccccc3)c2c1 | ? | -2 | 16% | ?
CCOCCc1nnc(NC(=O)COC)s1 | -3% | 7 | -1.2% | -13%
CCn1cc(S(=O)(=O)N2CCN(Cc3ccc(F)cc3)CC2)cn1 | 0% | 0 | -1.0% | 13%
CCn1cnc2c(Nc3cccc(Cl)c3)nc(C#N)nc21 | · | · | 0.2% | 24%
COCc1ccc(C(=O)N2CCN(CC(=O)N3CCCC3)CC2)cc1 | · | · | -0.8% | 0%
CCOC(=O)N1CCN(c2c(N3CCN(c4ccccc4OC)CC3)c(=O)c2=O)CC1 | -4% | 0 | -0.5% | 13%
O=C(c1ccco1)N1CCN(C(=O)c2cc(-c3ccccc3)nc3ccccc23)CC1 | -23% | -1 | 0.1% | 3%
O=C1C2C3C=CC(C3)C2C(=O)N1/N=C/c1cc(Br)cc([N+](=O)[O-])c1O (stereo not given) | -7% | -1 | 0.4% | 8%
CC(C)=CCC(C)(C)/C=N/NC(N)=O | -5% | 8 | -1.2% | 28%
CC(C)CC(C(=O)Nc1ccc2c(c1)OCCO2)N1C(=O)c2ccccc2C1=O (stereo not given) | 2% | 5 | -0.3% | 0%
CCCCc1ccc(-n2c(Cc3cccs3)n[nH]c2=S)cc1 | -1% | -9 | -1.3% | 14%
COC(=O)C1CCN(S(=O)(=O)c2ccc(Br)s2)CC1 | · | · | -0.8% | 28%
CCOc1cc(N2CCOCC2)c(OCC)cc1NC(=O)c1ccc(=O)n(Cc2ccccc2)n1 | -11% | 11 | · | ·
CC(=O)c1cc(-c2ccccc2)n(CCC(=O)NC2CCCC2)c1C | -4% | 1 | 4.8% | -1%
COc1ccccc1C(=O)Nc1ccccc1C(=O)N1C(C)CCCC1C (stereo not given) | -3% | -1 | -1.5% | -7%
CCC(C)[C@H](NC(=O)C1(c2ccccc2)CCN(C(=O)OC(C)(C)C)CC1)C(=O)N[C@@H](C(=O)O)c1ccccc1 (stereo not given in full) | -9% | · | 3.2% | -6%
CCc1cc(=O)oc2cc3occ(-c4ccc(OC)c(F)c4)c3cc12 | 30% | 12 | -0.5% | 3%
COc1ccccc1NCC(=O)N/N=C/c1c(O)ccc2ccccc12 | 12% | · | ? | ?
Cc1cccc(NC(=O)/C(C#N)=C/c2ccccc2Cl)n1 | 1% | · | -2.5% | -5%
COc1ccc(NC(=O)c2cc(=O)c3ccccc3o2)cn1 | -14% | 0 | -1.5% | 3%
CCCN(C(=O)c1ccc(N(C)S(=O)(=O)c2ccc(C)cc2)cc1)C1CCS(=O)(=O)C1 (stereo not given) | · | · | 0.7% | -2%
O=C(OCc1cncs1)c1ccccc1 | -3% | -3 | 0.6% | 3%
O=C1N/C(=N/S(=O)(=O)Cc2ccccc2)S/C1=C/c1ccc2c(c1)OCO2 | -6% | -14 | ? | -3%
Cc1ccc(C(=O)Nc2ccc(C(=O)N/N=C/c3c[nH]c4ccccc34)cc2)cc1 | 0% | 0 | -4.5% | -8%
COC(=O)c1cc(C(=O)OCC(=O)NC2CCCCCCC2)cc([N+](=O)[O-])c1 | · | · | 0.7% | -17%
O=S(=O)(Cc1ccccc1Cl)NCCOc1ccccc1 | -11% | 14 | -0.3% | 1%
COc1cc(C2C(C#N)=C(N)Oc3c2oc(CO)cc3=O)cc(OC)c1OC (stereo not given) | 2% | 4 | 6.9% | -10%
CCn1c(CSc2nc3ccccc3s2)nnc1SCC(=O)c1ccc(O)c(O)c1 | -1% | 6 | -5.3% | -2%
Brc1cccc(-c2nnco2)c1 | -3% | -4 | 4.5% | -5%
Cc1c(OC(C)C(=O)NC(Cc2c[nH]c3ccc(O)cc23)C(=O)O)ccc2c1oc(=O)c1ccccc12 (stereo not given) | 1% | · | 0.8% | -8%
N#Cc1cc([N+](=O)[O-])ccc1Oc1cccc(/C=N/NC(=O)c2ccc(Cl)cc2)c1 | -5% | -24 | 4.9% | -2%
CCCc1[nH]nc2c1C(c1cc(OC)ccc1F)C(C#N)=C(N)O2 (stereo not given) | -3% | 10 | 1.0% | -8%
COC(=O)c1c(-c2ccccc2Cl)noc1-c1cnc(N)nc1C(F)(F)F | 1% | 8 | 0.2% | 8%
Nc1[nH]nc2nc(N3CCOCC3)nc(-c3ccccc3)c12 | -1% | 5 | 0.0% | 31%
CC1C/C(=C/c2ccco2)C(=O)/C(=C/c2ccco2)C1 (stereo not given) | 7% | -13 | · | ·
CC(C)(C)C(=O)NC(=S)Nc1ccc(C(F)(F)F)cc1 | -24% | 6 | -2.7% | -2%
CC(Oc1ccc(F)cc1)C(=O)N(Cc1ccccc1)c1c(N)n(Cc2ccccc2)c(=O)[nH]c1=O (stereo not given) | · | · | -3.1% | 9%
Cc1ccc(NC(=O)c2ccccc2)cc1 | -45% | 4 | 0.8% | -5%
COc1ccccc1NS(=O)(=O)c1ccc(C)c(C(=O)NCc2cccnc2)c1 | · | · | -0.5% | 4%
Cc1ccc(-c2nc(Nc3cccc(C)c3)sc2CC(=O)O)cc1 | -23% | 0 | ? | -28%

Other results follow.
SMILES | miR-21 reporter | GLA inh pH 4.5 | Rango-impB inh | Rango dissoc inh
Cc1cccc(O)c1C | · | · | 2.0% | -2%
COc1ccc(Cl)cc1NC(=S)N1CCN(C(=O)C2CCCO2)CC1 (stereo not given) | 0% | 6 | -0.7% | -15%
c1ccc(-c2ccc(-c3ccccn3)nn2)nc1 | ? | -7 | · | ·
CCOc1ccc(NC(=S)NC(=O)Cc2ccccc2)cc1 | -14% | · | -1.2% | 20%
CCc1cccc(CC)c1C(OC(C)=O)c1cccnc1 (stereo not given) | · | · | 0.2% | -24%
O=C(NC(=S)N1CCCC1)c1cccc([N+](=O)[O-])c1 | 1% | · | 3.5% | 1%
CCN(C(=O)COC(=O)c1cccn1C)C1CCS(=O)(=O)C1 (stereo not given) | 3% | 16 | -0.8% | 2%
Cc1nnc(-c2cnn(-c3ccccc3)c2N)n1Cc1ccncc1 | -1% | -18 | -0.9% | 1%
CC(=O)OC1CCC2(C)C(=CCC3C2CCC2(C)C3CC3ON=C(C)C32)C1 (stereo not given) | · | · | -0.7% | -3%
Cc1cc(C)n(-c2nnc(SCC(=O)NC3CCCC3)c3ccccc23)n1 | -14% | 2 | 0.1% | 3%
CS(=O)(=O)c1ccc(Cl)c(NC(=O)CCl)c1 | ? | 2 | 6.8% | 0%
Cc1ccc([N+](=O)[O-])cc1NC(=O)c1ccc(-c2ccccc2)cc1 | -2% | -3 | 1.7% | 0%
Nc1ccc(S(=O)(=O)Nc2nccc(/C=C/c3ccc(Cl)cc3Cl)n2)cc1 | -16% | -4 | 2.4% | -4%
COc1ccc(N=C2SC(C(=O)O)CC(=O)N2C)cc1 (stereo not given) | 0% | 4 | -0.5% | 11%
Cc1ccc(S(=O)(=O)N2CCC(C(=O)N[C@H](C(=O)N3CCN(C)CC3)C(C)C)CC2)cc1 | -3% | 5 | 4.4% | -17%
O=C(CSc1nc(SCC(=O)NCc2ccccc2)n(-c2ccccc2)n1)NCc1ccccc1 | 0% | -1 | 3.4% | ?
NNC(=O)Cn1c(-c2ccccn2)nc2ccccc21 | -1% | · | -2.0% | -3%
COCC(=O)Nc1ccc(C)c(Cl)c1 | -9% | -12 | 3.8% | -24%
COc1ccc(N2CC(O)(c3ccc(F)cc3)[N+]3=C2CCCC3)cc1 (stereo not given) | -17% | -3 | 3.8% | 8%
COc1ccc(C2/C=C\CC(NC(=O)OCC3c4ccccc4-c4ccccc43)CC(=O)N2Cc2ccccc2F)cc1 (stereo not given) | · | -10 | -1.5% | 38%
Cc1ccc(/C=C2\CCOC2=O)cc1 | -19% | 1 | 1.4% | 6%
Cc1ccccc1Cn1nc(C)c(NC(=O)c2cc(CC(C)C)on2)c1C | 10%&6% | -5 | -1.0% | -7%
COc1ccc(CC(=O)OCC(=O)Nc2cccc(Cl)c2)cc1 | 0% | -5 | -3.0% | 9%
c1ccc(Cc2ccc(OCCn3ccnc3)cc2)cc1 | 20% | · | -3.8% | -20%
Cc1cccc(C(=O)N2CCC(N3CCC(C(=O)N4CCOCC4)CC3)CC2)c1 | 1% | · | ? | 11%

Some of the compounds tested. The share of hits here may be higher or lower than overall.
